FGF22 binding: FGF22 (human) thermal shift binding; calls only at 9.99 µM; recombinant FGF22 thermal shift, SYPRO orange fluorescence; percent of sucrose octasulfate shift, DMSO zero; 340,000 compounds, 1.5% hits; Q9HCT0;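 active = melting point raised past a set limit in the mean and every replicate; three in four hits are not shown here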
Target sequence (Q9HCT0 whole entry, looked up): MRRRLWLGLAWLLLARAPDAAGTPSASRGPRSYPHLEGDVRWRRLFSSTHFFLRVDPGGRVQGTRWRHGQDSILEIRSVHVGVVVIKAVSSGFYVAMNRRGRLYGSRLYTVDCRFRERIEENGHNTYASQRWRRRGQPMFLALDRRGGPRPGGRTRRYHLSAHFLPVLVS
AF4-AF9 inh: MLL-AF4/AF9 protein interaction inhibition. P42568. AlphaScreen, biotin-AF4 peptide binding to FLAG-AF9. inhibition, % at 10 µM. 350,000 compounds, 0.47% hits. AID 651704;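 active = every replicate reaching a set inhibition limit, whatever the replicate mean, cut at about 25% in these data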;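 note: 0% = plate neutral control median and 100% = total signal loss; the record names both 10 and 1 µM as test concentration; the first replicate is given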
Target sequence (P42568 whole entry, looked up): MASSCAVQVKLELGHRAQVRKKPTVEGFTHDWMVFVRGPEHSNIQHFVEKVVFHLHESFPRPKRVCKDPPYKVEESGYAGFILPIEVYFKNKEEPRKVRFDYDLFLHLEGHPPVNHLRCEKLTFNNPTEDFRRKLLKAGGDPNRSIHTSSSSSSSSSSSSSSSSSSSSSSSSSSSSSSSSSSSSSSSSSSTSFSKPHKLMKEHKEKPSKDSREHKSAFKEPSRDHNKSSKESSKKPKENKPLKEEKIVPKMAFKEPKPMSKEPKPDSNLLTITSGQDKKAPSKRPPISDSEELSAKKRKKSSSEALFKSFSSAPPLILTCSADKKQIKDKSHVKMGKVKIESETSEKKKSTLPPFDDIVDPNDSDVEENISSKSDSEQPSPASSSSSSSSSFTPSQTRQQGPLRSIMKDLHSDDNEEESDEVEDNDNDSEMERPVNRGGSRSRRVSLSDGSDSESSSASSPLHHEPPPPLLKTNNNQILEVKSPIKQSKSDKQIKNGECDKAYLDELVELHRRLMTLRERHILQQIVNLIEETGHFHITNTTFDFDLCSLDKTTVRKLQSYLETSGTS
* marks the source's active call; other numbers are inactive results; i = inactive; x = no result given.

SMILES	FGF22 binding	AF4-AF9 inh
C[C@H]1CN([C@@H](C)CO)C(=O)c2cccc(NC(=O)NC3CCCCC3)c2O[C@@H]1CN(C)S(=O)(=O)c1cccs1	i	0.7
COc1ccccc1-c1cn(CC[C@H]2CC[C@@H](NC(=O)NC(C)C)[C@H](CO)O2)nn1	i	-1.7
CC(C)CC#Cc1cnc2c(c1)C(=O)N([C@@H](C)CO)C[C@@H](C)[C@@H](CN(C)S(=O)(=O)c1cn(C)cn1)O2	i	-4.9
CN(C)CC(=O)N1[C@H](C#N)[C@H](c2ccc(C#CC3CCCCC3)cc2)[C@H]1CO	i	2.5
O=C(C1CCCC1)N1CCCCN2[C@H](CO)[C@@H](c3ccc(-c4cccc(F)c4)cc3)[C@@H]2C1	i	-1.1
CCCNC(=O)Nc1ccc2c(c1)C(=O)N(C)[C@@H]1CC[C@@H](CC(=O)NCCCN(C)C)O[C@@H]1CO2	i	-5.9
CNC[C@H]1Oc2ccc(NS(=O)(=O)c3cccs3)cc2CC(=O)N([C@H](C)CO)C[C@H]1C	i	-0.4
C[C@@H]1CN([C@@H](C)CO)C(=O)c2cccc(NS(C)(=O)=O)c2O[C@H]1CN(C)Cc1ccc(C(F)(F)F)cc1	i	1.8
COc1ccccc1CNC(=O)C[C@H]1C[C@@H]2c3cc(NC(=O)Nc4ccccc4F)ccc3O[C@@H]2[C@H](CO)O1	i	2.0
COCC(=O)N1CC[C@@H]2[C@@H](CO)Nc3ccc(-c4cccc(C#N)c4)cc3[C@@H]21	i	2.7
COc1ccc(S(=O)(=O)Nc2ccc3c(c2)C(=O)N([C@H](C)CO)C[C@@H](C)[C@@H](CN(C)C(=O)Nc2ccccc2)O3)cc1	i	-0.8
CCC(=O)Nc1ccc2c(c1)C(=O)N(C)C[C@H](OC)[C@H](C)CN(CCC(F)(F)F)[C@H](C)CO2	i	-2.6
C[C@@H]1CCCCO[C@@H](CN(C)C(=O)Nc2ccc3c(c2)OCO3)[C@@H](C)CN([C@H](C)CO)C(=O)c2cc(NC(=O)CCCN(C)C)ccc2O1	i	2.0
O=C(C[C@@H]1CC[C@@H](NC(=O)NC2CCCCC2)[C@@H](CO)O1)NCc1ccc(F)cc1	i	1.1
COc1ccc2c3c(n(C)c2c1)[C@@H](CO)N(C(C)=O)CC31CCN(Cc2ccccc2OC)CC1	i	-4.9
C[C@@H]1CN([C@@H](C)CO)C(=O)c2cc(-c3cccc(F)c3)cnc2O[C@H]1CN(C)C(=O)C1CCOCC1	i	-4.3
COCC(=O)N(C)C[C@@H]1Oc2ncc(-c3ccccc3OC)cc2C(=O)N([C@@H](C)CO)C[C@H]1C	i	-12
CCCNC(=O)N1C[C@@H](O)COC[C@@H]2O[C@@H](CC(=O)OC)CC[C@H]21	i	-3.1
C[C@H](O)C#Cc1cnc2c(c1)C(=O)N([C@H](C)CO)C[C@H](C)[C@H](CN(C)C(=O)c1ccc(F)cc1)O2	i	-1.4
CCC(=O)Nc1ccc2c(c1)OC[C@H](C)N(C(=O)CC1CC1)C[C@@H](C)[C@H](OC)CN(C)C2=O	i	-7.2
CCCC#Cc1ccc2c(c1)O[C@@H](CN(C)C(=O)Nc1ccccc1F)[C@H](C)CN([C@@H](C)CO)S2(=O)=O	i	0.7
O=C(C[C@@H]1CC[C@@H]2[C@H](COC[C@@H](O)CN2Cc2ccc(Oc3ccccc3)cc2)O1)Nc1nccs1	i	5.6
C[C@@H]1CN([C@H](C)CO)C(=O)Cc2cc(NC(=O)CCCCCC(=O)Nc3ccccc3N)ccc2O[C@@H]1CN(C)CC1CC1	i	3.6
C[C@H](CO)N1C[C@H](C)[C@H](CN(C)C(=O)CN(C)C)Oc2ncc(C#CC(C)(C)O)cc2C1=O	i	-2.9
C[C@@H]1CN([C@H](C)CO)C(=O)c2cc(NC(=O)c3ccncc3)ccc2O[C@@H]1CN(C)S(=O)(=O)c1ccc(Cl)cc1	i	-1.8
C[C@H]1CN([C@@H](C)CO)C(=O)Cc2cc(NS(=O)(=O)c3ccc(Cl)cc3)ccc2O[C@H]1CN(C)C(=O)Nc1ccccc1	i	-0.9
C[C@@H]1CN([C@H](C)CO)C(=O)c2cc(NC(=O)Cc3cn(C)c4ccccc34)ccc2O[C@H]1CN(C)C	i	-7.4
CCCN(C)C[C@H]1Oc2ncc(-c3ccccc3)cc2C(=O)N([C@H](C)CO)C[C@@H]1C	i	3.0
COc1ccc(CN(C)C[C@H]2OCCCC[C@H](C)Oc3ccc(NS(=O)(=O)c4cccs4)cc3C(=O)N([C@H](C)CO)C[C@@H]2C)cc1	i	0.9
CCCC#Cc1ccc2c(c1)O[C@H](CN(C)Cc1ccncc1)[C@@H](C)CN([C@@H](C)CO)S2(=O)=O	i	8.1
COc1ccccc1NC(=O)N1CC[C@@H]2[C@@H](CO)N(C)c3ccc(-c4ccc(F)cc4)cc3[C@@H]21	i	7.8
Cc1ccc(C2c3c(n[nH]c3C)C(=O)N2Cc2ccccc2)cc1 (configuration not stated)	x	-2.6
COc1ccc(-c2ccc3n(c2=O)C[C@H]2[C@H](CO)[C@@H](C(=O)N(C)C)[C@@H]3N2Cc2ccncc2)cc1	i	-15
O=C(C[C@@H]1CC[C@@H](NS(=O)(=O)c2ccc(F)cc2)[C@@H](CO)O1)NCc1ccncn1	i	-2.6
COc1ccc(S(=O)(=O)N(C)C[C@H]2OCCCC[C@@H](C)Oc3ccc(NS(=O)(=O)c4ccc(F)cc4)cc3C(=O)N([C@@H](C)CO)C[C@@H]2C)cc1	i	-1.9
CCCNC(=O)N1CC2(CN(Cc3ccncc3)C2)c2c(n(C)c3cc(OC)ccc23)[C@H]1CO	i	-2.6
O=C(N[C@H]1CC[C@@H](CCNS(=O)(=O)c2cccc(Cl)c2)O[C@H]1CO)c1ccncc1	i	1.9
COc1ccc(/C=C2\SC(=S)N(CCCC(=O)NC34CC5CC(CC(O)(C5)C3)C4)C2=O)cc1	i	2.6
C[C@@H]1CN([C@@H](C)CO)C(=O)Cc2cc(NC(=O)C3CC3)ccc2O[C@@H]1CN(C)C(=O)Nc1ccccc1	i	-1.5
COc1ccc(S(=O)(=O)N(C)C[C@H]2Oc3ccc(NC(=O)Cc4cn(C)c5ccccc45)cc3C(=O)N([C@H](C)CO)C[C@@H]2C)cc1	i	2.3
CC(C)CC#Cc1ccc2c(c1)O[C@H](CN(C)C(=O)Cc1ccncc1)[C@H](C)CN([C@@H](C)CO)S2(=O)=O	i	0.6
COc1ccc(S(=O)(=O)N(C)C[C@@H]2Oc3c(NC(=O)C4CCOCC4)cccc3C(=O)N([C@@H](C)CO)C[C@@H]2C)cc1	i	-5.1
C[C@@H]1CN([C@H](C)CO)C(=O)c2ccccc2-c2ccccc2CO[C@H]1CN(C)C(=O)Oc1ccccc1	i	6.2
C[C@@H]1CCCCO[C@@H](CN(C)Cc2ccc(C(F)(F)F)cc2)[C@@H](C)CN([C@@H](C)CO)C(=O)c2cc(NC(=O)NC3CCCCC3)ccc2O1	i	-3.5
COc1ccc(-c2cn(CC[C@@H]3CC[C@@H](NC(=O)NC(C)C)[C@@H](CO)O3)nn2)cc1	i	-3.5
COc1cccc(-c2cn(CC[C@H]3CC[C@@H](NC(C)=O)[C@H](CO)O3)nn2)c1	i	1.0
O=C(C[C@@H]1CC[C@@H]2[C@H](COC[C@@H](O)CN2Cc2ccccc2)O1)N[C@H]1CCN(Cc2ccccc2)C1	i	3.2
Cc1noc(C)c1NC(=O)Nc1ccc2c(c1)C(=O)N(C)[C@H]1CC[C@H](CC(=O)N[C@@H]3CCN(Cc4ccccc4)C3)O[C@H]1CO2	i	2.0
CN(C)CCCNC(=O)C[C@H]1CC[C@@H](NC(=O)c2ccccc2F)[C@H](CO)O1	i	-0.1
C[C@H]1CN([C@@H](C)CO)C(=O)CCCn2cc(nn2)CO[C@H]1CN(C)C(=O)NC1CCCC1	i	-3.0
O=C(C[C@@H]1C=C[C@H](NC(=O)Cc2ccccn2)[C@H](CO)O1)NCCc1ccncc1	i	3.9
CN1CCN(C(=O)C[C@H]2CC[C@@H]3[C@H](COC[C@@H](O)CN3C(=O)Nc3ccc4c(c3)OCO4)O2)CC1	i	1.7
Cc1noc(C)c1NC(=O)Nc1ccc2c(c1)CC(=O)N([C@@H](C)CO)C[C@@H](C)[C@@H](CN(C)CC1CC1)O2	i	-0.9
CN(C)CCCNC(=O)C[C@H]1CC[C@H]2[C@H](COc3ccc(NC(=O)c4ccccc4F)cc3C(=O)N2C)O1	i	0.5
COc1ccc2c3c([nH]c2c1)[C@@H](CO)N(Cc1ccc(F)cc1)CC31CN(C)C1	i	3.0
C[C@H](CO)N1C[C@H](C)[C@H](CN(C)C(=O)NC2CCCC2)Oc2ncc(C#CC3CCCCC3)cc2C1=O	i	0.9
C[C@@H]1CCCCO[C@@H](CN(C)Cc2ccccc2)[C@H](C)CN([C@@H](C)CO)C(=O)c2cc(NC(=O)NC3CCCCC3)ccc2O1	i	4.6
C[C@@H]1CN([C@H](C)CO)C(=O)c2cccc(NC(=O)c3ccc(-c4nccs4)cc3)c2O[C@@H]1CN(C)C(=O)Nc1ccc2c(c1)OCO2	i	4.6
Cc1ccc(S(=O)(=O)Nc2ccc3c(c2)C(=O)N([C@@H](C)CO)C[C@@H](C)[C@@H](CN(C)C(=O)Nc2c(C)noc2C)O3)cc1	i	3.9
CC(=O)NC[C@H]1[C@H](c2ccc(-c3cccnc3)cc2)[C@@H](CO)N1C(=O)C1CC1	i	-2.0
New compounds follow
SMILES	FGF22 binding	AF4-AF9 inh
NCC[C@@H]1CC[C@@H](NC(=O)C2CCCC2)[C@@H](CO)O1	i	-0.2
Cn1cnc(S(=O)(=O)N2CCCCN3[C@H](CO)[C@H](c4ccc(C#CC5CCCC5)cc4)[C@@H]3C2)c1	i	-7.0
CCCN1[C@H](C(=O)NCCCN2CCOCC2)[C@@H](CO)[C@@H]2Cn3c(ccc(-c4ccncc4)c3=O)[C@@H]21	i	-8.2
O=C(N[C@@H]1CC[C@@H](CCNS(=O)(=O)c2ccc(F)cc2)O[C@H]1CO)C1CCC1	i	-0.7
C[C@H]1CN([C@@H](C)CO)C(=O)c2cc(NS(=O)(=O)c3ccc(F)cc3)ccc2O[C@H]1CN(C)S(=O)(=O)c1ccc(F)cc1	i	-3.4
CC(C)NC(=O)N(C)C[C@H]1Oc2ncc(C3=CCCCC3)cc2C(=O)N([C@H](C)CO)C[C@H]1C	i	-14
C[C@@H]1CN([C@@H](C)CO)S(=O)(=O)c2ccc(C#Cc3ccccc3)cc2O[C@H]1CN(C)S(=O)(=O)c1ccccc1F	i	-0.2
Cc1noc(C)c1S(=O)(=O)Nc1ccc2c(c1)C(=O)N([C@H](C)CO)C[C@H](C)[C@H](CN(C)S(C)(=O)=O)OCCCC[C@@H](C)O2	i	-1.1
C[C@@H]1CN([C@@H](C)CO)C(=O)c2cc(-c3cccc(C(=O)N(C)C)c3)cnc2O[C@H]1CN(C)S(=O)(=O)c1ccc(F)cc1	i	0.3
CC(=O)N(C)C[C@H]1Oc2ncc(C#Cc3ccccc3F)cc2C(=O)N([C@H](C)CO)C[C@H]1C	i	-1.6
O=C([C@H]1[C@H](CO)[C@H]2Cn3c(cccc3=O)[C@H]2N1Cc1ccncc1)N1CCCCC1	i	-20
Cc1ccc(S(=O)(=O)N(C)C[C@H]2Oc3cc(C4=CCCC4)ccc3S(=O)(=O)N([C@@H](C)CO)C[C@H]2C)cc1	i	-0.5
O=C(C1CCOCC1)N1CC(=O)N2[C@@H](CO)[C@@H](c3ccc(C#CC4CCCCC4)cc3)[C@@H]2C1	i	1.7
O=C(N[C@@H]1CC[C@H](CCNC(=O)c2cnccn2)O[C@@H]1CO)c1ccc2c(c1)OCO2	i	-0.8
C[C@H](CO)N1C[C@H](C)[C@@H](CN(C)C(=O)Nc2cccc3ccccc23)OCCCC[C@H](C)Oc2ccc(NC(=O)C3CCCCC3)cc2C1=O	i	-5.9
COc1ccc(NC(=O)N(C)C[C@H]2OCc3cnnn3CCCC(=O)N([C@@H](C)CO)C[C@@H]2C)cc1	i	1.0
CN(C)C(=O)C[C@@H]1CC[C@H]2[C@@H](COc3ccc(NC(=O)NCc4ccccc4)cc3C(=O)N2C)O1	i	-1.8
O=C(C[C@@H]1C[C@@H]2c3cc(NC(=O)Nc4ccccc4F)ccc3O[C@@H]2[C@H](CO)O1)NCc1ccc2c(c1)OCO2	i	-7.8

5 records drawn at random from those above:
SMILES	FGF22 binding	AF4-AF9 inh
CN(C)C(=O)C[C@@H]1CC[C@H]2[C@@H](COc3ccc(NC(=O)NCc4ccccc4)cc3C(=O)N2C)O1	i	-1.8
NCC[C@@H]1CC[C@@H](NC(=O)C2CCCC2)[C@@H](CO)O1	i	-0.2
O=C(C[C@@H]1C[C@@H]2c3cc(NC(=O)Nc4ccccc4F)ccc3O[C@@H]2[C@H](CO)O1)NCc1ccc2c(c1)OCO2	i	-7.8
COc1ccc(NC(=O)N(C)C[C@H]2OCc3cnnn3CCCC(=O)N([C@@H](C)CO)C[C@@H]2C)cc1	i	1.0
Cc1ccc(S(=O)(=O)N(C)C[C@H]2Oc3cc(C4=CCCC4)ccc3S(=O)(=O)N([C@@H](C)CO)C[C@H]2C)cc1	i	-0.5

Sorted by heavy-atom count (largest number first): three of the compounds above.
SMILES	FGF22 binding	AF4-AF9 inh
COc1ccc(S(=O)(=O)Nc2ccc3c(c2)C(=O)N([C@H](C)CO)C[C@@H](C)[C@@H](CN(C)C(=O)Nc2ccccc2)O3)cc1	i	-0.8
Cc1noc(C)c1NC(=O)Nc1ccc2c(c1)CC(=O)N([C@@H](C)CO)C[C@@H](C)[C@@H](CN(C)CC1CC1)O2	i	-0.9
O=C(N[C@@H]1CC[C@@H](CCNS(=O)(=O)c2ccc(F)cc2)O[C@H]1CO)C1CCC1	i	-0.7

Compound activity (PubChem BioAssay)

These rows are one share of the data; rates above refer to the full screens.
